# KCNQ2 enhance – potentiators of rat KCNQ2 potassium channel; Potassium voltage-gated channel subfamily KQT member 2 (Rattus norvegicus), O88943; hit rate 0.54% among 310,000; CHO-K1 KCNQ2, FluxOR thallium flux fluorescence; active compounds read high; B-score at 10 µM;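 active = fluorescence ratio B-score at least 3 SD of library B-scores, with initial fluorescence B-score within 3 SD, cut at about 5.3 in these data; same plate scores as AID 2156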;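 note: B-score of peak minus minimum over baseline fluorescence ratio after K+ and Tl+ stimulus; positive B-score means potentiation of KCNQ2 with more thallium influx and brighter signal; only the inactives scoring about 0 or higher are listed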
# Target sequence (O88943 whole entry, looked up): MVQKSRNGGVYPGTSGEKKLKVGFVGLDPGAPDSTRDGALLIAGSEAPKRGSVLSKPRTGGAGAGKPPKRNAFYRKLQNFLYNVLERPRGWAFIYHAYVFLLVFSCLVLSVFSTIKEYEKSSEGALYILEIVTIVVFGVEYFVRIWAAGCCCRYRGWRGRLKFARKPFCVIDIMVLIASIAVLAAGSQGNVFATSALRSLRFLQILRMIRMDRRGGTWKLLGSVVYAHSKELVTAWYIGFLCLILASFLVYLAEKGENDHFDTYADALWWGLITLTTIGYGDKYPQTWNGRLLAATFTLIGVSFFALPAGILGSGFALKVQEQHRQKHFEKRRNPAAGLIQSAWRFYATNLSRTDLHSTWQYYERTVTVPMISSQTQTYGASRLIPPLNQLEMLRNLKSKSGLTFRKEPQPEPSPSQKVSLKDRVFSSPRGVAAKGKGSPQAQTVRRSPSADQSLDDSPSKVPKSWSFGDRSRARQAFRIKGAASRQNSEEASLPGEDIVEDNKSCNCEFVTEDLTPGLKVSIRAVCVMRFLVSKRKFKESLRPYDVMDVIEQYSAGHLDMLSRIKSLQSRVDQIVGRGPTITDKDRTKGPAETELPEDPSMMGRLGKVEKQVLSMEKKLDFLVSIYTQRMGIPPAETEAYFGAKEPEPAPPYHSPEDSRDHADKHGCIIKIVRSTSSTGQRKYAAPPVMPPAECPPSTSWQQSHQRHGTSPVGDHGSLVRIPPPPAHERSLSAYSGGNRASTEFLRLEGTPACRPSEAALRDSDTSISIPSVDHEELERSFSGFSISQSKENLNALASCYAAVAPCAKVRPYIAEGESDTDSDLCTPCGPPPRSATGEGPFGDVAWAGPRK
# KCNQ2 enhance baseline – further read-out of KCNQ2 enhance, marked with its call; B-score; compound at 10 µM; measured here: initial fluorescence intensity artifact check;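 brightness before thallium and not channel activity; 0 = typical well and far values either way flag optical interference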
# Starred values were filed as active, the others as inactive. Some of the compounds tested (hit frequency here may not be typical).
mol | KCNQ2 enhance | KCNQ2 enhance baseline
CCOC(=O)N1CCN(C(=O)C(NC(=O)c2ccc(CC)cc2)C(C)C)CC1 (configuration not stated) | 0.13 | -1.4
CCOC(=O)c1c(C)[nH]c(C(=O)COC(=O)CSC)c1C | 1.37 | -0.48
COc1ccc(/C(O)=C2\C(=O)C(=O)N(CCN(C)C)C2c2cccc(OC)c2OC)cc1 (configuration not stated) | 0.34 | 0.03
CCn1cc(/C=C(\NC(=O)c2ccc(C)cc2)C(=O)NCCN2CCOCC2)c2ccccc21 | 1.99 | 0
CCn1c(SCC(=O)Nc2cccc(F)c2)nc2c(c1=O)SC(C)C2 (configuration not stated) | 3.63 | 0.94
CCS(=O)(=O)N1CCC(C(=O)NCc2cccc(OC)c2)CC1 | 0.09 | -1.01
COc1cccc(CCc2nnc(N)s2)c1 | 0.71 | -1.09
COC(=O)c1c(NC(=O)CSc2nnnn2-c2ccc3c(c2)OCO3)sc(C)c1C | 1.55 | -0.06

# Sorted by SMILES length (ascending): some entries from above
mol | KCNQ2 enhance | KCNQ2 enhance baseline
CCS(=O)(=O)N1CCC(C(=O)NCc2cccc(OC)c2)CC1 | 0.09 | -1.01
CCn1c(SCC(=O)Nc2cccc(F)c2)nc2c(c1=O)SC(C)C2 (configuration not stated) | 3.63 | 0.94
COc1ccc(/C(O)=C2\C(=O)C(=O)N(CCN(C)C)C2c2cccc(OC)c2OC)cc1 (configuration not stated) | 0.34 | 0.03

# The results go on.
mol | KCNQ2 enhance | KCNQ2 enhance baseline
O=C(c1c(F)cccc1F)N(Cc1ccccn1)C1CC1 | 0.74 | 1.03
O=C1/C(=C/c2cccc(Br)c2)SC(=S)N1/N=C/c1cc([N+](=O)[O-])ccc1O | 0.54 | -0.61
CC(=O)Nc1cc(NC(=O)CCCC(=O)O)ccc1Cl | 2.67 | -0.58
O=C(O)C1CCCCC1C(=O)NCCc1c[nH]c2ccccc12 (configuration not stated) | 0.19 | -4.25
CC(C)CCOc1cccc(OCC(=O)N(C)C2CCS(=O)(=O)C2)c1 (configuration not stated) | 0.09 | 0.83
CNC(=O)c1cc(S(=O)(=O)N(C)C)ccc1Cl | 1.59 | 2.9
O=C(Nc1cccc2cccnc12)c1ccc(Br)cc1Br | 1.07 | -1.33
O=C1NC2(CCCCO2)CO1 (configuration not stated) | 0.06 | 2.98
CCOC(=O)c1c(O)c2ccccc2n(C)c1=O | 0.03 | 1.87
Cc1ccc(S(=O)(=O)N/N=c2\sc3ccccc3n2C)cc1 | 0.04 | 1.1
Cc1occc1C(=O)NN1C(=O)C2C3CCC(O3)C2C1=O (configuration not stated) | 0.51 | -0.01
NC(=O)CC(NC(=O)c1ccc(Br)cc1)c1ccc(NC2CCCCC2)c([N+](=O)[O-])c1 (configuration not stated) | 1.4 | -0.06
CC(=O)Nc1ccc(S(=O)(=O)N2CCN=C2SCc2cccc(C)c2)cc1 | 0.61 | -1.21
COc1cc(C(=O)NCc2cc(C)nc3ccccc23)cc(OC)c1OC | 0.06 | 1.16
COc1cc(C(=O)NCC(=O)OCC(=O)N2CCc3ccccc32)cc(OC)c1OC | 1.24 | -0.87
O=C(CCN1CCOCC1)NNC(=O)Nc1cccc(Cl)c1 | 0.93 | -0.2
CCN(CCNS(=O)(=O)c1ccc2c(c1)oc(=O)n2C)c1ccccc1 | 0.39 | -0.41
CNC(=O)NNC(=O)c1csc(Cc2c(Cl)sc3ccc(Cl)cc23)n1 | 3.67 | 0.05
Clc1ncc2[nH]cnc2n1 | 1.42 | -0.24
CC(=O)Nc1ccc(S(=O)(=O)NCCC(=O)Nc2cc(C)ccn2)cc1 | 0.78 | -1.19
CCN(CC)CCCC1(CN)OCCc2ccccc21 (configuration not stated) | 1.7 | -1.06
CCCCNC(=O)NNC(=O)c1cc(C)on1 | 0.44 | 0.02
O=C(CSc1nc2ccccc2c(=O)n1-c1ccc(F)cc1)Nc1ccc(N2CCOCC2)cc1 | 0.62 | 0.35
N#Cc1c(NC(=O)c2cccc(S(=O)(=O)Nc3ccc(C(=O)O)cc3)c2)sc2c1CCCC2 | 4.47 | 1.08

# In another format: entries from further up
KCNQ2 enhance	KCNQ2 enhance baseline	smiles
3.67	0.05	CNC(=O)NNC(=O)c1csc(Cc2c(Cl)sc3ccc(Cl)cc23)n1
1.42	-0.24	Clc1ncc2[nH]cnc2n1
0.78	-1.19	CC(=O)Nc1ccc(S(=O)(=O)NCCC(=O)Nc2cc(C)ccn2)cc1
1.7	-1.06	CCN(CC)CCCC1(CN)OCCc2ccccc21 (configuration not stated)
0.44	0.02	CCCCNC(=O)NNC(=O)c1cc(C)on1
0.62	0.35	O=C(CSc1nc2ccccc2c(=O)n1-c1ccc(F)cc1)Nc1ccc(N2CCOCC2)cc1

# More entries follow.
mol | KCNQ2 enhance | KCNQ2 enhance baseline
CSc1ccc(/C=N\NC(=O)CC(=O)NC(C)C)cc1 | 0.6 | 0.04
COc1cc(C2/C(=C(\O)c3ccc4c(c3)CC(C)O4)C(=O)C(=O)N2Cc2ccco2)ccc1O (configuration not stated) | 0.73 | -0.54
O=C(CCCl)Nc1ccc(S(=O)(=O)NCc2ccco2)cc1 | 0.79 | -0.42
CCC1C(=O)N=C(SCC(=O)Nc2ccc(Br)cn2)NC1=O (configuration not stated) | 1 | 0.01
COn1c(SCC(=O)N(C)C)nc2ccccc2c1=O | 1.07 | 1.86
CCC(=O)c1ccc(OCC(=O)OCC(=O)N2CCc3ccccc32)cc1 | 0.73 | -1.4
CCOC(=O)c1c(N2C(=O)Nc3ccccc3N2O)sc2c1CCCCC2 | 0.67 | -1.39
Cc1ccc(C(=O)COc2ccccc2N2C(=O)c3ccccc3C2=O)cc1 | 1.13 | 0.43
O=C(CCc1ccccc1)NNC(=O)Cc1ccc(Cl)cc1 | 1.41 | 1.44
COc1ccc(N2CCN(C3CCCN(Cc4cccc(C(C)=O)c4)C3)CC2)cc1 (configuration not stated) | 1.04 | 0.04
COC(=O)c1ccc(OCCOc2ccccc2)cc1 | 1.06 | -1.56
CC(Oc1ccccc1)C(=O)N1CCC2(CC1)Oc1ccc(Cl)cc1C(=O)C21CC(c2ccccc2)=NO1 (configuration not stated) | 0.02 | -2.51
COc1ccc(C(C)=O)cc1COC(=O)c1ccc(S(=O)(=O)N(C)C)cc1 | 0.44 | 0.53
COCCNC(=O)c1ccc(Cn2c(SCC(=O)NCC3CCCO3)nc3ccc(Br)cc3c2=O)cc1 (configuration not stated) | 0.64 | -1.73
C/C(=C/CCC(C)C1CCC2(C)C3CCC4C(C)(C)C(=O)CCC4(C)C3=CCC12C)C(=O)O (configuration not stated) | 1.57 | -1.88
O=C1NCC(COCc2ccccc2)O1 (configuration not stated) | 0.67 | -1.19
Cc1ccc(S(=O)(=O)CC(O)COc2ccc(F)cc2Cl)c(C)c1 (configuration not stated) | 0.26 | -0.41
CC(=O)c1ccc(N2CCN(C(=O)C3(S(=O)(=O)c4ccc(Cl)cc4)CC3)CC2)cc1 | 0.9 | 0.1
O=C(O)Cc1ccc(NC(=O)c2ccc(NC(=O)C3CC3)cc2)cc1 | 1.28 | -1.15
O=C(NCCN1CCOCC1)c1cccc(S(=O)(=O)N(Cc2ccccc2)c2ccccc2)c1 | 0.62 | -0.67
Cn1c(=O)c2c(n(Cc3ccccc3)c1=O)NC(=O)C2CC(=O)NCc1cccc(Cl)c1 (configuration not stated) | 0.91 | -0.15
CC(C)CN1CCC(CN(C)Cc2nc(-c3cnccn3)no2)CC1 | 0.3 | -0.13
CCc1ccccc1NC(=S)NCc1cccn1C | 0.84 | 0.02
CCOC(=O)c1c(NS(=O)(=O)c2ccc(Br)cc2)sc2c1CCC2 | 18.1* | 0.84*
CCOC(=O)c1[nH]c2ccccc2c1NC(=O)c1ccc(S(=O)(=O)N2CCCC2)cc1 | 0.38 | 0.03
COCCn1c(C)cc(C(=O)CSc2n[nH]c(N)n2)c1C | 0.48 | -0.13
O=C(NCC(=O)N1CC(O)CC1C(=O)N1CCCC1C(=O)OCc1ccccc1)OCc1ccccc1 (configuration not stated) | 1.05 | -0.79
CC(C)(C)c1nnc2sc(SCC(=O)c3ccccc3)nn2c1=O | 1.02 | 0.38
O=C(NCc1ccc(F)cc1)C1CCCN(S(=O)(=O)c2ccc(Br)s2)C1 (configuration not stated) | 0.26 | 0.21
Cc1ccc(OCC(=O)NCCNC(=O)c2cnccn2)cc1 | 1.48 | -0.5
C[C@H](NC(=O)c1ccc2ccccc2c1)C(=O)N1CCC2(CC1)NCCc1[nH]cnc12 | 0.54 | -1.12
CCN(Cc1ccccc1)C(=O)C(=O)c1cn(CC(=O)N2CCCC2)c2ccccc12 | 0.49 | -1.03

# (cont.)
# The line under a structure holds: KCNQ2 enhance | KCNQ2 enhance baseline
- CCn1nnnc1SCC(=O)c1cc(OC)ccc1OC
    0.01 | 0.85
- COc1cccc(CNC(=O)C2CCC(=O)N(C3CC3)C2)c1OC (configuration not stated)
    0.96 | -2.32
- Cc1ccc(NC(=O)CN(C)S(=O)(=O)c2ccc3c(c2)c(=O)n(C)c(=O)n3C)cc1
    0.09 | 0.03
- Cc1ccc(S(=O)(=O)Nc2ccc3c(c2)ncn3C(C)(C)C)cc1
    0.31 | -0.9
- CC1=CC(=O)C=CC1(C)C(Cl)(Cl)Cl (configuration not stated)
    0.45 | 1.83
- CC1=C(C(=O)OCc2ccccc2)C(c2cccc([N+](=O)[O-])c2)NC(=O)N1C (configuration not stated)
    0.66 | -0.57
- O=C(c1cccnc1)N1N=C(C2CCCCC2)CC1(O)C(F)(F)F (configuration not stated)
    0.57 | -1.27
- O=C(NC1CCCCC1)C(c1ccc(F)cc1)N(Cc1ccc2c(c1)OCO2)C(=O)c1cnsn1 (configuration not stated)
    0.41 | 1.23
- CCOc1nc2ccccc2nc1C
    0.42 | -0.4
- Cc1c(C)n(C)c2ccc(C(=O)NCCN3CCOCC3)cc12
    0.63 | -0.12
- Cc1ccc(S(=O)(=O)N2CCC(=O)N(C(COCc3cccc(Cl)c3)C(C)C)CC2)cc1 (configuration not stated)
    0.35 | -1.48
- S=c1nccc(-c2cccs2)[nH]1
    4.11 | 0.29
- CCOc1ccc(NC(=O)CN(C)C(=O)c2ccccc2OCc2c(C)noc2C)cc1OCC
    0.21 | -0.49
- COc1cc(/C=N/NC(=O)c2cc(-c3cccc(OC(C)C)c3)nc3ccccc23)ccc1O
    1.19 | -2.99
- CCOC(=O)C(C(=O)OCC)C(Nc1cccc(Br)c1)c1ccccc1 (configuration not stated)
    0.63 | 0.52
- O=C(O)CCN(Cc1ccccc1)S(=O)(=O)c1c(Cl)cccc1Cl
    0.07 | -0.15
- CC(C)(C)NC(=S)N/N=C/c1cccnc1
    0.2 | -0.19
- Cc1ccc(S(=O)(=O)NCCc2nnc3ccc(SCC(=O)Nc4nc(C)cs4)nn23)cc1
    0.01 | -0.17
- Cc1nnc(NC(=O)COc2ccccc2)s1
    0.73 | -0.03
- CCOC(=O)c1ccc(NC(=O)C2CC2)cc1
    0.89 | -0.54
- COc1ccc(CCN=C(N)NS(=O)(=O)c2ccc(OC)c(OC)c2)cc1OC
    0.83 | -0.96
- COC(=O)[C@@]12CCCN1[C@H](c1ccc(-c3ccc(F)cc3)c(OC)c1)[C@H]1C(=O)N(C)C(=O)[C@H]12
    2.29 | -0.61
- CCC(=O)N(Cc1cc2cc(OC)ccc2[nH]c1=O)c1ccccc1C
    0.62 | -0.06
- CCCCC1=CC2=CC(=O)C(C)(OC(=O)CCc3ccccc3)C(=O)C2=CO1 (configuration not stated)
    0.03 | -0.49
- CC(C)(C)c1ccc(-c2nc3cc(N)ccc3o2)cc1
    1.96 | 1.13
- CCOc1ccc(C2CC(=O)NC(SCC(=O)OC)=C2C#N)cc1 (configuration not stated)
    0.39 | 1.16
- COc1ccc(C(=O)COC(=O)c2ccc(Cl)nc2)c(OC)c1
    0.1 | 1.46
- N#C/C(=C\C=C\c1ccccc1[N+](=O)[O-])c1nc(-c2ccc3c(c2)OCO3)cs1
    3.93 | -0.02
- COc1ccc(C(=O)OCCNC(=O)c2c(Cl)nc3ccccn23)cc1
    0.56 | -0.09
- O=[N+]([O-])c1cccc(-c2ccc3nnc(SCc4ccccn4)n3n2)c1
    1.5 | 0.95
- CCN(CC(=O)Nc1ccc(NC(C)=O)cc1)C(=O)c1ccc2c(c1)S(=O)(=O)N=C1CCCCCN12
    0.33 | 2.61
- COc1ccc(OC)c(Nc2nc3nonc3nc2N2CCCC(C)C2)c1 (configuration not stated)
    0.22 | -0.84
- CCCCOc1ccc(CSc2nnc(C)n2N)cc1[N+](=O)[O-]
    1.07 | 0.08
- CCOC(=O)c1[nH]c2ccc(OC)cc2c1NS(=O)(=O)c1ccc(Cl)s1
    0.36 | 0.1
- COc1ccc2cc(C(N)=O)/c(=N\NC(=O)c3ccccc3)oc2c1
    1.49 | -0.93
- O=C(NN1CCOCC1)C12CC3CC(CC(C3)C1)C2
    0.3 | 1.59
- O=C(c1ccc(S(=O)(=O)N2CCCCCC2)cc1)N1CCN(c2ccccn2)CC1
    0.11 | 1.62
- O=C(Nc1nnc(Cc2ccc(Cl)cc2)s1)c1cccnc1
    1.4 | 1.94
- Cc1c(C(=O)NC2CCS(=O)(=O)C2)oc2ccccc12 (configuration not stated)
    0.61 | 1.9
- CCN(CC(=O)NC(=O)NCc1ccco1)Cc1ccccc1
    0.52 | 0.86
- Cc1ccc(/C=C/C(=O)N2CC(C)CC(C)C2)o1 (configuration not stated)
    6.21* | -1*
- CCCCCc1ccc(-c2cn(Cc3ccc([N+](=O)[O-])cc3)nn2)cc1
    0.61 | 0.37
- O=C(NCc1ccc(F)cc1)Nc1cccc(Cl)c1
    5.84* | -0.08*
- O=C(Nc1cccc(NC(=O)c2cccnc2Cl)c1)c1ccco1
    1.27 | 0.01
- Cc1ccc(S(=O)(=O)c2cc(C)cc(S(=O)(=O)Nc3ccc(C(=O)O)cc3)c2C)cc1
    0.88 | -0.94
- COc1cc(/C=C/c2nc(N)nc(-c3ccccc3O)n2)cc(OC)c1OC
    0.82 | -1.89
- NC(=O)c1ccc(NS(=O)(=O)c2ccccc2F)cc1
    0.97 | -0.63

# Compound activity (PubChem BioAssay)
